KCNQ2 enhance – KCNQ2 (rat) channel potentiation; CHO-K1 KCNQ2, FluxOR thallium flux fluorescence; hits give high values; B-score at 10 µM; O88943; actives 0.54% (n = 310,000);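 active = fluorescence ratio B-score at least 3 SD of library B-scores, with initial fluorescence B-score within 3 SD, cut at about 5.3 in these data; same plate scores as AID 2156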;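 note: B-score of peak minus minimum over baseline fluorescence ratio after K+ and Tl+ stimulus; positive B-score means potentiation of KCNQ2 with more thallium influx and brighter signal; only the inactives scoring about 0 or higher are listed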
Target sequence (O88943 whole entry, looked up): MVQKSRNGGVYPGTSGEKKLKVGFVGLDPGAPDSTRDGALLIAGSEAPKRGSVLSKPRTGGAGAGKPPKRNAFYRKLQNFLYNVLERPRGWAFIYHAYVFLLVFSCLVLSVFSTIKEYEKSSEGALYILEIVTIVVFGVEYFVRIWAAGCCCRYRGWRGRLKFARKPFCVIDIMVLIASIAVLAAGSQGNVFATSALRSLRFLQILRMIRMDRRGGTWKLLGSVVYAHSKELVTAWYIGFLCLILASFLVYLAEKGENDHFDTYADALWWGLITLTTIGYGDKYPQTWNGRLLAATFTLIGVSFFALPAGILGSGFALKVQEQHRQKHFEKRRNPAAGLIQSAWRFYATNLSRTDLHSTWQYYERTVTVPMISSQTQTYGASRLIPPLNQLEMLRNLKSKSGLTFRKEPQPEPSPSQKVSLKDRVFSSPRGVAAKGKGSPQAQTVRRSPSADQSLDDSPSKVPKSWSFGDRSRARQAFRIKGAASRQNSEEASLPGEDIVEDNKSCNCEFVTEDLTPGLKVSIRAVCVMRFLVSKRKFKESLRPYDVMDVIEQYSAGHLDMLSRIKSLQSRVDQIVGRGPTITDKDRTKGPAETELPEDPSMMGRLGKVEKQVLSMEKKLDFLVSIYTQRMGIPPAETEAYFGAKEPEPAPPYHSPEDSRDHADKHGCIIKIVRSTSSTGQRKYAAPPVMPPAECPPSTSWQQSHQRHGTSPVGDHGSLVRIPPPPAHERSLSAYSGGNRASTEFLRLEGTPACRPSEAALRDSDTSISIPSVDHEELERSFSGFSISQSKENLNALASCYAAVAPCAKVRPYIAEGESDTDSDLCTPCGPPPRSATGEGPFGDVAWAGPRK
KCNQ2 enhance baseline – also measured in KCNQ2 enhance; calls as there; B-score; compound at 10 µM; measured here: initial fluorescence intensity artifact check;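 brightness before thallium and not channel activity; 0 = typical well and far values either way flag optical interference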
An asterisk follows results filed as active. A portion of the library. The share of hits here may be higher or lower than overall.

structure	KCNQ2 enhance	KCNQ2 enhance baseline
CCc1cccc(CC)c1NC(=O)COC(=O)Cc1ccsc1	0.99	0.9
c1ccc(Cn2nnnc2CN2CCN(Cc3ccc4c(c3)OCO4)CC2)cc1	0.03	1.22
Cn1c(CC(=O)Nc2ccccc2F)nnc1SCC(=O)NC1CCCCC1	4.06	-0.33
COc1ccc(Nc2cc(C)nc3nc(C)nn23)cc1Cl	0.14	-0.13
C=CCNC(=O)COC(=O)c1c2c(nc3ccccc13)CCC2	2.54	1.35
O=C(C1CCC1)N1CCc2cc(S(=O)(=O)Nc3ccc4c(c3)OCO4)ccc21	0.91	-0.72
CCOc1ccc2[nH]cc(-c3csc(N)n3)c2c1	0.2	0.94
Cc1c(C(=O)OCC(=O)NCc2ccccc2)oc2ccccc12	0.49	0.12
CCS(=O)(=O)c1ccc2oc(SCC(=O)Nc3ccc(OC)cc3OC)nc2c1	0.67	-0.7
O=C(Cc1ccccc1)NCC(=O)N/N=C/c1ccc([N+](=O)[O-])s1	0.03	-1.27
CC(=O)Nc1cc(-c2nn(CC(=O)N3CCCCC3)c(=O)c3ccccc23)ccc1N1CCOCC1	0.65	-1.9
O=C(CCNC(=O)Cn1ccc2ccccc2c1=O)NCCCN1CCN(c2ccccc2F)CC1	0.12	-1.89

Reprinted from the part before: seven entries, followed by the next part.
structure	KCNQ2 enhance	KCNQ2 enhance baseline
O=C(C1CCC1)N1CCc2cc(S(=O)(=O)Nc3ccc4c(c3)OCO4)ccc21	0.91	-0.72
CCOc1ccc2[nH]cc(-c3csc(N)n3)c2c1	0.2	0.94
Cc1c(C(=O)OCC(=O)NCc2ccccc2)oc2ccccc12	0.49	0.12
CCS(=O)(=O)c1ccc2oc(SCC(=O)Nc3ccc(OC)cc3OC)nc2c1	0.67	-0.7
O=C(Cc1ccccc1)NCC(=O)N/N=C/c1ccc([N+](=O)[O-])s1	0.03	-1.27
CC(=O)Nc1cc(-c2nn(CC(=O)N3CCCCC3)c(=O)c3ccccc23)ccc1N1CCOCC1	0.65	-1.9
O=C(CCNC(=O)Cn1ccc2ccccc2c1=O)NCCCN1CCN(c2ccccc2F)CC1	0.12	-1.89
O=C(COc1ccc2c3c(c(=O)oc2c1)CCC3)NCCN1CCOCC1	4.29	-1.26
Cc1ccc([C@H]2C(C#N)=C(N)Oc3cc(C)oc(=O)c32)o1	3.31	-1.26
C/C(=N\NC(=O)NC1CCCCC1)c1ccco1	1.46	-0.76
CC(C)Cc1nc2oc3c(Cl)ncnc3c2c2c1CCCC2	1.5	0.4
Cc1nc2ncnn2c(N2CCN(S(=O)(=O)c3ccc(Br)cc3)CC2)c1C	0.02	-0.04
Cc1ccc(NC(=O)CSc2ccc(-c3ccc4c(c3)OCO4)nn2)cc1F	0.77	-0.05
Cn1c(N2CCC(C(N)=O)CC2)nc2c1c(=O)n(Cc1cccc(Br)c1)c(=O)n2C	1.44	-1.71
COC(=O)C(C)N(c1ccc(OC)cc1)S(C)(=O)=O (centres undefined)	0.87	1.2
Cc1cc(NC(=O)CSc2nc(-c3ccc(Br)cc3)nc3c2c(=O)n(C)c(=O)n3C)no1	0.22	0
CSc1ccc(C(=O)NCC(c2ccco2)N(C)C)cc1[N+](=O)[O-] (centres undefined)	1.72	0
C=CCNC(=O)c1oc2ccc(S(=O)(=O)N3CCC4(CC3)OCCO4)cc2c1C	0.39	-0.38
CCOC(=O)c1ccc(NC(=O)NCc2ccncc2)cc1	0.01	-1.71
O=C(/C=C/Nc1ccc(Oc2ccccc2Cl)cc1)c1ccco1	2	-0.8
CC1CC(C)CN(C(=S)Nc2ccc(OC(F)F)cc2)C1 (centres undefined)	1.5	0.16
O=C(c1ccccc1-c1ccccc1)N1CCCC1	0.22	-0.11
CCCCNC(=O)c1ccc(CS(=O)(=O)c2ccc(C)cc2)o1	0.02	-0.96
Cn1cccc1CC(=O)N/N=C/c1cccc2ccccc12	1.78	2.18
CCOC(=O)c1[nH]c2ccccc2c1NC(=S)Nc1ccccc1	1.35	0.26
O=C(Cn1nc(Cc2cccnc2)c2ccccc2c1=O)N1CCN(C(=O)c2ccco2)CC1	0.13	-0.02
Cc1cccc(C)c1-n1c(C)cc(/C=N\NC(=O)CC(=O)NC2CCCCC2)c1C	8.41*	-2.55*
COc1cccc(SCC(=O)N2CCN(c3ccccc3)CC2)c1	0.19	-0.77
Cc1ccc(NC(=O)c2cnc(SCC(=O)c3ccccc3)n(C)c2=O)cc1	0.71	0.16
CSc1ccc(-c2nnn(Cc3ccccn3)n2)cc1	0.89	0
CCn1c(-c2ccccc2)c(C(=O)O)c2ccccc21	0.62	-0.41
CCCn1c2ccccc2c2nnc(SCC(=O)OCC)nc21	0.99	-0.27
C=CCn1c(Cc2ccc(OC)cc2)nnc1SCC(=O)c1cccc([N+](=O)[O-])c1	1.21	0.65
CN(Cc1nc2ccc(F)cc2[nH]1)Cc1c(C(=O)N(C)C)nc2ccc(Cl)cn12	0.44	0.01
CC(C)(C)SCCNC(=O)/C=C/c1cccc([N+](=O)[O-])c1	0.29	-1.04
O=C([C@H](Cc1ccc(O)cc1)n1cc(CCO)nn1)N1CCNCC1	1.38	0.89
O=C(CSc1nc2ccccc2c2nc3ccccc3n12)NCc1ccco1	0.64	-1.42
COc1ccccc1C(=O)NNC(=O)c1ccc(Br)o1	0.05	1.27
C=C1[C@@H](C)C2[C@H](Cc3ccccc3)NC(=O)[C@]23OC(=O)CC[C@H](O)CCC[C@H](C)C/C=C/[C@H]3[C@@H]1O (some centres undefined)	1.74	0.14
COc1ccc(N=c2oc3cc(O)ccc3cc2C(=O)NCC2CCCO2)cc1 (centres undefined)	0.28	-0.69
O=C(NCCC1=CCCCC1)C1CCCN(S(=O)(=O)c2cccc3cccnc23)C1 (centres undefined)	1.77	0.84
CCOC(=O)C(Cc1ccccc1)NC(=O)Cn1nnc(-c2ccccc2)n1 (centres undefined)	2.95	-1.6
O=C(NCCN1CCOCC1)c1ccccc1Cl	0.03	-1.01
O=C1OCC(CO)(CO)N=C1NNc1ccc(Cl)c(Cl)c1	1.02	-0.82
Cc1ccc(OCC(=O)N/N=C\c2ccc(O)cc2)c([N+](=O)[O-])c1	0.21	1.07
C/C(=N\Nc1ncc(Cl)cc1Cl)c1ccc(C#N)cc1	0.3	1.87
CCN(CC)S(=O)(=O)c1cc(C(=O)c2nccn2C)ccc1Cl	0.49	-1.04
Cc1c(C)c2ccc(OCC(=O)NCCCN3CCCC3=O)cc2oc1=O	1.51	-1.26
O=C(c1cc2c([nH]c1=O)CCCC2)N1CCc2c([nH]c3ccccc23)C1c1ccccc1F (centres undefined)	2.76	-1.32
CCOc1ccc(NC(=O)CSc2nnc(C)n2CC)cc1	1.03	-1
CC(C)c1ccc(/C=N/N2CCN(c3ccccn3)CC2)cc1	1.28	0.51
CC(C)c1ccc(NC(=S)NCc2ccc3c(c2)OCO3)cc1	1.31	-0.55
Cc1ccc(OCC(O)CN2CCOCC2)cc1 (centres undefined)	1	-0.78
Cc1cccc(OCC(=O)NCC(=O)N/N=C/c2c(C)[nH]c3ccccc23)c1	0.46	-2.03
CC(C)(C)c1nnc(NC(=O)CN2C(=O)C3C4C=CC(C4)C3C2=O)s1 (centres undefined)	0.18	-0.77
CN(C(=O)COC(=O)/C=C/c1ccc(C(F)(F)F)cc1)c1c(N)n(Cc2ccccc2)c(=O)[nH]c1=O	0.71	0.38
O=C1/C(=C\c2ccsc2)NC(=S)N1c1ccccc1	1.55	0.49
COc1ccc(-c2noc(N3CCCC(C(=O)Nc4cc(F)ccc4F)C3)n2)cc1 (centres undefined)	0.44	-0.11
COc1ccc(S(=O)(=O)NCCCCCC(=O)NCCCN2CCOCC2)cc1	0.96	-0.68
COC(=O)C(Cc1ccc(O)cc1)NC(=O)C1CCN(S(=O)(=O)c2ccc(C)cc2)CC1 (centres undefined)	0.67	-0.78
Cc1[nH]c2ccccc2c1Cc1nnc(SCCC#N)o1	0.71	-0.71
COC(=O)c1ccc2c(=O)n(CCO)c(=S)[nH]c2c1	0.26	0.49
O=C(Cc1ccc(Br)cc1)N/N=C/c1ccc(-c2cccc(C(=O)O)c2)o1	2.27	0.12
Cc1cc(C(F)(F)F)nn1CC(=O)NNC(=S)NCC(C)C	0.54	-1.42
OCCN1CCN(Cc2cc(Cl)c3cccnc3c2O)CC1	1.04	-1.14
COC(=O)c1ccccc1NC(=O)C1CCCN(S(C)(=O)=O)C1 (centres undefined)	0.41	0.78
N#Cc1cc(N2CCCCC2)c([N+](=O)[O-])cc1C#N	0.12	2.54

More entries
structure	KCNQ2 enhance	KCNQ2 enhance baseline
O=C(NCCC(=O)N1CCN(c2ncccn2)CC1)c1ccccc1Cl	2.04	-1.51
O=C(Oc1ccc(-n2cnnn2)cc1)c1ccco1	0.99	-0.91
COC(=O)c1c(C(=O)OC)c2n(c1C)CCS2	0.66	0.08
CC(C)CNS(=O)(=O)c1ccc(CCC(=O)NCCc2ccccc2)cc1	0.85	0.25
O=c1cc2c(nn1Cc1c(Cl)cccc1Cl)-c1ccccc1CC2	1.58	-1.3
NC(=O)CS(=O)(=O)c1nc2ccccc2n1CC(=O)N1CCCCC1	0.61	-3.01
OCC(O)C1OC(Nc2ccc(Cl)cc2)C(O)C1O (centres undefined)	0.46	-0.14
Cc1nc2cc(-n3ccc(=O)cc3)ccc2n1-c1ccccc1	1.89	-0.94
COc1ccc(S(=O)(=O)N2CCC(Cc3ccccc3)CC2)cc1C(N)=O	0.31	3.13
CC(C)Oc1cc(NC(=O)CS(=O)CC(=O)N(C)C)c(Cl)cc1Cl (centres undefined)	1.01	0.5
O=C(CCC(=O)c1cccs1)NCC(=O)Nc1ccc(F)c(F)c1F	0.5	0.02
COc1ccc(NC(=O)C2CC(=O)N(CCc3ccc(F)cc3)C2)c(OC)c1 (centres undefined)	0.15	-0.43
CNC(=O)COc1coc(CN2CCN(c3ccccc3F)CC2)cc1=O	0.23	-0.81
CCOc1ccc(/C=N/NC(=O)c2nnn(-c3nonc3N)c2CN(C)C2CCCCC2)cc1	0.96	-1.27
CCOC(=O)c1[nH]c2ccccc2c1N=CN(C)C	0.46	-0.19
COC(=O)c1nn2c(C(F)(F)F)cc(-c3ccc(Br)o3)nc2c1Br	0.01	0.73
S=c1nc(-c2cc(Cl)cc(Cl)c2)[nH][nH]1	0.7	-0.83
CSc1ccc(/C=C(\C(=O)O)c2ccc(S(=O)(=O)N3CCCCC3)s2)cc1	1.53	0.09
COCCNC(=S)N(CCc1c(C)[nH]c2ccccc12)Cc1cccnc1	2.27	-0.04
COc1cccc(N(CC(=O)NCc2cccnc2)S(C)(=O)=O)c1	1.67	-0.01
O=C(NC1CCCC1)C(c1cccnc1)N(Cc1ccc(F)cc1)C(=O)c1csnn1 (centres undefined)	0.81	-0.17
Cc1ccc(NC(=O)CSc2nnc3c(n2)[nH]c2ccccc23)cc1	0.58	0.74
CSc1ccccc1C(=O)Nc1ncn[nH]1	0.05	-0.14
COC(=O)c1ccc(S(=O)(=O)NCc2ccco2)n1C	2.41	-0.19
O=C(c1cccc(C(F)(F)F)c1)N1CCN(S(=O)(=O)c2ccc(Cl)s2)CC1	3.05	-1.19
O=C(O)c1cc(O)ccc1NC(=O)C(c1ccccc1)c1ccccc1	0.12	-0.67
CCOC(=O)CC1C(=O)NCCN1C(=O)COc1ccc(C(C)(C)C)cc1 (centres undefined)	0.33	-1.35
C=CCSc1nc2c(c(=O)[nH]1)C(c1ccccc1)C(C#N)=C(N)O2 (centres undefined)	0.42	0.01
CCOC(=O)N1CCC(NC(=O)c2ccc3c(c2)N=C(C)c2ccccc2S3)CC1	0.57	-2.57
Cc1c(Cl)cccc1-n1c(SCC(=O)N2CCC(C(=O)O)CC2)nc2ccccc2c1=O	0.45	2.53
CC(N)C12CC3CC(C1)CC(C(C)N)(C3)C2 (centres undefined)	1	0.76
COc1ccc(NC(=O)CSc2nc(N)c(-c3ccccc3)c(=O)[nH]2)cc1	0.59	0.32
CS(=O)(=O)c1ccc2nc(NC(=O)c3cc4ccccc4o3)sc2c1	1.12	1.04
Cc1cc(NC(=O)CSc2nc3c(c(=O)n(C)c(=O)n3C)n2C(C)C)no1	0.63	-0.4
CCc1ccccc1NC(=S)NC1CC2CCC(C1)N2Cc1ccc(F)cc1 (centres undefined)	0.84	0.89
CC(Oc1ccccc1)C(=O)Nc1cccc(NC(=O)c2ccco2)c1 (centres undefined)	0.72	1.77
O=C(Nc1cccc(C(F)(F)F)c1)OCc1ccncc1	2.33	0.01
CC(NC(=O)Nc1cccc([N+](=O)[O-])c1)c1ccc2c(c1)OCO2 (centres undefined)	6.32*	-1.7*
COc1cccc(NC(=O)c2ccc3c(c2)C(=O)N(CC2CCCO2)C3=O)c1 (centres undefined)	0.1	3.23
CCN(CC)S(=O)(=O)c1cccc(N=Nc2sc(N)nc2C)c1	0.88	-0.18
O=[N+]([O-])c1ccccc1S(=O)(=O)N(CC(O)CN1CCCCC1)c1ccccc1 (centres undefined)	2.97	-1.66
CCc1nc2nc(C)c(NS(=O)(=O)c3ccc(F)cc3)c(=O)n2[nH]1	0.76	-0.24
O=S(=O)(NCC1CC1)c1cccc(S(=O)(=O)N2CCCC2)c1	0.43	0.36
CC(C)Oc1ccc(C(=O)Nc2nnc(SCC(=O)N3CCOCC3)s2)cc1	0.79	0.04
O=C(Nc1cccc(Cl)c1)Nc1ccccc1C(=O)NCc1ccco1	1.21	0.33
